# Source: PubChem
# DUX4 inh – DUX4-mediated transcription inhibition | 293T-iDUX4 ZSCAN4-Gaussia luciferase reporter, 24 h; active compounds read low | activity change, negative = inhibition, % (no concentration beside the values) | hit rate 0.8% among 37,000 | AID 1224904;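 active = -10% or lower and over 25 points stronger than a control reporter; inconclusive = -10% or lower with a smaller gap; inactive = above -10%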;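 also: 0% = median of neutral control wells and -100% = median of positive control wells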
# DUX4 inh difference – also measured in DUX4 inh; calls as there; Gaussia minus Italica difference, %; measured here: selective DUX4 reporter inhibition;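 worked out from the two reporters; negative = selective loss of the DUX4 reporter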
# DUX4 inh control – recorded beside DUX4 inh, whose call it bears; activity change, negative = inhibition, %; measured here: Italica tet-on control reporter;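 0 = neutral control and -100 = positive control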
# The depositor's hits bear a star; ? = inconclusive; · = no result given; & = joins results of further samples.
SMILES,DUX4 inh,DUX4 inh difference,DUX4 inh control
COCCNC(=O)C[C@@H]1CC[C@@H]2[C@H](COc3ccc(NC(=O)Nc4cccc(F)c4)cc3C(=O)N2C)O1,-1.6,2.7,-4.3
COc1cccc(S(=O)(=O)Nc2ccc3c(c2)[C@H]2C[C@H](CC(=O)NC4CCCCC4)O[C@@H](CO)[C@H]2O3)c1,-7.6,-3.2,-4.4
N#C[C@@H]1[C@H](c2ccccc2-c2cccc(F)c2)[C@@H](CO)N1C(=O)NC1CCCCC1,-1.1,5.9,-6.9
CO[C@@H]1CN(C)C(=O)c2cc(NS(=O)(=O)CC(F)(F)F)ccc2OC[C@H](C)NC[C@@H]1C,1.3,-3.0,4.3
O=C(O)C[C@H]1CC[C@H](NC(=O)CCN2CCCCC2)[C@@H](CO)O1,2.1,-1.5,3.5
CN(C)c1ccc2c(c1)[C@H]1C[C@H](CC(=O)NCCN3CCCCC3)O[C@@H](CO)[C@H]1O2,6.3,-1.0,7.3
CN(C)CC(=O)Nc1ccc2c(c1)[C@H]1C[C@@H](CC(=O)NCc3ccncc3)O[C@H](CO)[C@H]1O2,11.7,4.2,7.5
CCCN1C[C@@H](C)[C@@H](OC)CN(C)C(=O)c2cc(NC(=O)Nc3cccc(F)c3)ccc2OC[C@H]1C,-5.0,-5.3,0.3
CNC[C@H]1OCCCC[C@@H](C)Oc2ccc(NS(=O)(=O)c3cccs3)cc2C(=O)N([C@H](C)CO)C[C@H]1C,-3.9,3.5,-7.3
CO[C@H]1CC[C@@H]2CCN(C)C(=O)C[C@H](c3ccccc3)CN(C)C(=O)c3cccc(C#N)c3OC[C@@H]1O2,-0.2,12.1,-12.3
Cc1ccccc1S(=O)(=O)N1[C@H](C#N)[C@H](c2ccc(C#CC3CCCCC3)cc2)[C@H]1CO,-4.6,-3.9,-0.7
O=C(Cc1ccccc1)N1C[C@@H]2[C@H](c3ccccc31)[C@H](CO)N2C(=O)Cc1ccccc1,1.0,5.3,-4.3
CCCC#Cc1ccc([C@H]2[C@H]3CN(C(=O)Nc4cc(F)ccc4F)CC(=O)N3[C@H]2CO)cc1,1.7,5.7,-4.0
CCS(=O)(=O)N(C)C[C@@H]1N[C@H](CO)[C@@H]1c1ccc(-c2ccccc2F)cc1,2.4,1.3,1.1
COCC(=O)N1C[C@H](C)[C@@H](OC)CN(C)C(=O)c2cc(NC(=O)c3cnccn3)ccc2OC[C@H]1C,9.7,3.1,6.5
COc1ccc2c3c([nH]c2c1)[C@@H](CO)N(C(C)=O)CC31CCN(C(=O)c2ccc3c(c2)OCO3)CC1,19.0,11.8,7.2
O=C(Cc1ccccc1)N1CC2(C1)[C@@H](c1ccccc1)[C@@H](CO)N2C(=O)c1cccnc1,-6.0,-0.6,-5.4
COc1ccc(CN(C)C[C@H]2Oc3c(NC(=O)c4cnccn4)cccc3C(=O)N([C@H](C)CO)C[C@@H]2C)cc1,-2.0,-2.4,0.4
O=C(c1ccccn1)N1CC2(C1)[C@@H](c1ccccc1)[C@@H](CO)N2C(=O)C1CCC1,5.5,7.8,-2.3
CCCN(C)C[C@H]1Oc2ncc(C#CCN(C)C)cc2C(=O)N([C@H](C)CO)C[C@@H]1C,-3.7,-3.3,-0.5

# Brought forward from above: 6 compounds; new compounds follow.
SMILES,DUX4 inh,DUX4 inh difference,DUX4 inh control
COCC(=O)N1C[C@H](C)[C@@H](OC)CN(C)C(=O)c2cc(NC(=O)c3cnccn3)ccc2OC[C@H]1C,9.7,3.1,6.5
COc1ccc2c3c([nH]c2c1)[C@@H](CO)N(C(C)=O)CC31CCN(C(=O)c2ccc3c(c2)OCO3)CC1,19.0,11.8,7.2
O=C(Cc1ccccc1)N1CC2(C1)[C@@H](c1ccccc1)[C@@H](CO)N2C(=O)c1cccnc1,-6.0,-0.6,-5.4
COc1ccc(CN(C)C[C@H]2Oc3c(NC(=O)c4cnccn4)cccc3C(=O)N([C@H](C)CO)C[C@@H]2C)cc1,-2.0,-2.4,0.4
O=C(c1ccccn1)N1CC2(C1)[C@@H](c1ccccc1)[C@@H](CO)N2C(=O)C1CCC1,5.5,7.8,-2.3
CCCN(C)C[C@H]1Oc2ncc(C#CCN(C)C)cc2C(=O)N([C@H](C)CO)C[C@@H]1C,-3.7,-3.3,-0.5
COc1ccc(CN2C[C@@H](O)COC[C@H]3O[C@H](CC(=O)N(C)C)CC[C@@H]32)cc1,0.3,0.9,-0.5
C/C=C/c1ccc2c(c1)O[C@@H](CN(C)C(=O)Nc1ccc(OC)cc1)[C@@H](C)CN([C@H](C)CO)S2(=O)=O,4.5,2.4,2.1
COc1ccc(CN2C[C@@H](O)COC[C@@H]3O[C@@H](CC(=O)NCc4ccccc4Cl)CC[C@H]32)cc1,-5.7,-1.4,-4.3
COc1ccc2c3c([nH]c2c1)[C@@H](CO)N(Cc1ccccc1OC)CC31CCN(C)CC1,?,·,·
CNC(=O)C[C@@H]1CC[C@@H]2[C@H](COC[C@H](O)CN2Cc2ccc(Cl)c(Cl)c2)O1,4.1,-1.7,5.8
CCCNC(=O)[C@@H]1[C@@H](CO)[C@@H]2Cn3c(cccc3=O)[C@@H]2N1Cc1cccc(F)c1,1.3,1.6,-0.3
COc1ccc(CN2CC3(CN(C(C)=O)C3)c3c(n(C)c4cc(OC)ccc34)[C@@H]2CO)cc1,4.0,-3.3,7.2
C[C@@H]1CN([C@@H](C)CO)C(=O)c2cc(NS(=O)(=O)c3ccc(Cl)cc3)ccc2O[C@@H](C)CCCCO[C@@H]1CN(C)C(=O)CCCN(C)C,-0.2,4.6,-4.8
COc1ccc2c3c([nH]c2c1)[C@@H](CO)N(Cc1cccc(Cl)c1)CC31CN(C)C1,?,·,·
O=C(CC1CC1)N1CC2(C1)[C@@H](c1ccccc1)[C@@H](CO)N2C(=O)C1CCOCC1,6.3,0.9,5.4
COc1ccc(NC(=O)N(C)C[C@@H]2OCCCC[C@@H](C)Oc3ccc(NC(=O)c4ccncc4)cc3C(=O)N([C@@H](C)CO)C[C@H]2C)cc1,0.0,2.6,-2.6
CC(C)NC(=O)N1[C@H](C(=O)NC2CCC2)[C@@H](CO)[C@@H]2Cn3c(ccc(-c4ccccc4F)c3=O)[C@@H]21,0.0,-0.3,0.3
C[C@@H]1CCCCO[C@@H](CN(C)S(=O)(=O)c2cn(C)cn2)[C@@H](C)CN([C@H](C)CO)C(=O)c2cc(NC(=O)c3ccncc3)ccc2O1,3.8,1.9,1.9
CCCN1[C@H](C(=O)N(C)C)[C@@H](CO)[C@@H]2Cn3c(ccc(C4=CCCCC4)c3=O)[C@@H]21,-0.5,-3.7,3.3
CO[C@@H](CN(C)Cc1ccc(-c2ccccn2)cc1)[C@H](C)CN(C(=O)Nc1ccc(F)cc1)[C@H](C)CO,-2.8,-2.0,-0.8
CNC[C@H]1Oc2ccc(NC(=O)c3ccncc3)cc2CC(=O)N([C@@H](C)CO)C[C@H]1C,-1.9,-4.4,2.5
CCS(=O)(=O)Nc1ccc2c(c1)C(=O)N(C)[C@@H]1CC[C@@H](CC(=O)OC)O[C@H]1CO2,5.3,7.3,-2.1
COCC(=O)N1[C@H](C#N)[C@@H](c2ccccc2-c2cccc(OC)c2)[C@@H]1CO,5.1,6.5,-1.4
O=C(NC1CCC1)[C@H]1[C@H](CO)[C@H]2Cn3c(ccc(C4=CCCC4)c3=O)[C@@H]1N2C(=O)c1ccccc1,-3.3,1.4,-4.7
O=C(Cc1ccccc1)N1CC[C@H]2[C@H](CO)Nc3ccc(-c4ccccc4)cc3[C@H]21,11.4,7.5,3.9
O=C(C[C@@H]1C=C[C@@H](NC(=O)Cc2cccnc2)[C@@H](CO)O1)NCc1ccc2c(c1)OCO2,4.1,-2.8,7.0
O=C(c1cccc(F)c1)N1CCCCN2[C@H](CO)[C@H](c3ccc(-c4ccccc4)cc3)[C@@H]2C1,-7.1,2.9,-10.0
O=C(C[C@H]1C[C@@H]2c3cc(NC(=O)C4CCOCC4)ccc3O[C@@H]2[C@H](CO)O1)NCc1ccc2c(c1)OCO2,-0.7,0.4,-1.1
CC(=O)N1[C@H](CNC(=O)CN(C)C)[C@@H](c2ccc(C3=CCCCC3)cc2)[C@@H]1CO,2.4,1.4,1.0
O=C(O)C[C@@H]1C[C@H]2c3cc(NC(=O)Nc4ccccc4)ccc3O[C@H]2[C@@H](CO)O1,0.0,-1.5,1.6
Cc1ccccc1-c1cnc2c(c1)C(=O)N([C@@H](C)CO)C[C@H](C)[C@H](CN(C)Cc1ccccc1F)O2,3.4,2.8,0.6
C[C@@H]1CN([C@@H](C)CO)C(=O)CCCn2nncc2CO[C@H]1CN(C)S(=O)(=O)c1ccc2c(c1)OCCCO2,1.3,4.5,-3.2
CN(C)C(=O)c1cccc(-c2ccc([C@@H]3[C@H]4CN(Cc5cccnc5)CCCCN4[C@H]3CO)cc2)c1,26.0,21.9,4.1
CO[C@H]1CN(C)C(=O)c2cccc(C#N)c2OCC[C@@H]2CC[C@@H](OC)[C@H](CN(C)C(=O)[C@H]1C)O2,-5.6,-5.7,0.1
CC(=O)N1[C@@H]2Cn3c(ccc(C4=CCCC4)c3=O)[C@H]1[C@@H](C(=O)NCc1ccccc1)[C@@H]2CO,-3.9,-3.5,-0.5
CC(C)NC(=O)N(C)C[C@@H]1OCc2ccccc2-c2ccccc2C(=O)N([C@@H](C)CO)C[C@H]1C,24.8,22.4,2.4
C[C@H](CO)N1C[C@H](C)[C@H](CN(C)S(=O)(=O)c2ccc(Cl)cc2)Oc2ccc(NC(=O)Cn3cnnn3)cc2CC1=O,0.1,-0.3,0.4
CO[C@@H]1CN(C)C(=O)c2cc(NC(=O)c3cc(C)on3)ccc2OC[C@H](C)N(C)C[C@H]1C,4.5,4.7,-0.2
CN(C)C(=O)c1ccc(-c2ccc3c(c2)[C@@H]2[C@@H](CCN2C(=O)C2CCCC2)[C@@H](CO)N3C)cc1,?,·,·
COc1cccc(-c2ccc3c(c2)[C@@H]2[C@@H](CCN2C(=O)C2CCOCC2)[C@H](CO)N3)c1,11.1,9.4,1.7
CC(C)C#Cc1ccc([C@H]2[C@@H](CO)N3C(=O)CN(C(=O)c4ccc5c(c4)OCO5)C[C@H]23)cc1,-0.7,3.5,-4.1
O=C(C[C@H]1C[C@@H]2c3cc(NC(=O)CC4CC4)ccc3O[C@@H]2[C@@H](CO)O1)NCCc1ccccc1,-3.1,1.4,-4.4
O=C(Cc1cccnc1)N1CC(=O)N2[C@@H](CO)[C@H](c3ccc(C4=CCCCC4)cc3)[C@@H]2C1,8.5,6.0,2.5
COc1ccc(C#Cc2ccc([C@@H]3[C@H]4CN(Cc5ccncc5)CCCCN4[C@H]3CO)cc2)cc1,-36.3*,-35.8*,-0.5*
CCCNC(=O)N1C[C@H]2[C@@H](c3ccccc31)[C@H](CO)N2Cc1ccc(OC)cc1,-4.1,0.0,-4.0
CN(C)CC#Cc1ccc([C@@H]2[C@H]3CN(C(=O)Cc4cccnc4)CC(=O)N3[C@H]2CO)cc1,6.5,5.2,1.3
COc1ccccc1-c1ccc2c(c1)O[C@@H](CN(C)C(=O)Nc1cccc(F)c1)[C@@H](C)CN([C@H](C)CO)S2(=O)=O,-0.2,1.7,-1.9
COCC#Cc1cnc2c(c1)C(=O)N([C@@H](C)CO)C[C@@H](C)[C@H](CN(C)C(=O)Nc1ccccc1OC)O2,3.2,-3.3,6.5
CNC(=O)C[C@H]1CC[C@@H]2[C@H](COc3ccc(NS(=O)(=O)c4ccc(F)cc4)cc3C(=O)N2C)O1,-4.7,0.8,-5.5
O=C(C[C@@H]1C[C@@H]2c3cc(NC(=O)c4cccnc4)ccc3O[C@@H]2[C@H](CO)O1)NCC(F)(F)F,-1.2,-3.5,2.3
C/C=C/c1ccc([C@H]2[C@@H](CO)N(S(=O)(=O)CC)[C@H]2CN(C)C(=O)CC)cc1,-4.7,-8.7,4.0
O=C(CC1CC1)N1CC(=O)N2[C@H](CO)[C@@H](c3ccc(C#Cc4ccc(F)cc4)cc3)[C@@H]2C1,-5.2,-0.4,-4.8
O=C(C[C@@H]1CC[C@H]2NC[C@@H](O)COC[C@@H]2O1)Nc1nccs1,5.2,-5.1,10.3
CCCC(=O)N1CC2(CCN(C(=O)NC(C)C)CC2)c2c(n(C)c3cc(OC)ccc23)[C@H]1CO,23.3,15.7,7.6
CC=Cc1ccc2n(c1=O)C[C@H]1[C@H](CO)[C@@H](C(=O)N3CCCCC3)N(C(=O)CC3CC3)[C@@H]21 (mixture of isomers),-2.3,-0.1,-2.1
N#C[C@H]1[C@H](c2ccccc2C2=CCCC2)[C@@H](CO)N1C(=O)C1CCOCC1,14.6,10.8,3.8
C[C@H](CO)N1C[C@H](C)[C@@H](CN(C)Cc2cccc(C(=O)O)c2)Oc2cc(Br)ccc2S1(=O)=O,2.7,4.2,-1.5
COc1ccc2c3c([nH]c2c1)[C@H](CO)N(C(C)=O)CC31CCN(C(=O)Nc2ccc(F)cc2F)CC1,9.5,2.9,6.7
CCCNC(=O)C[C@@H]1CC[C@@H]2[C@H](COC[C@@H](O)CN2C(=O)Nc2ccccc2OC)O1,3.0,-6.3,9.3
O=C(C[C@H]1C=C[C@@H](NC(=O)c2ccncc2)[C@H](CO)O1)NCC1CC1,-8.4,-10.5,2.1
N#Cc1cccc(-c2ccc(C3[C@@H]4CN(C(=O)c5ccncc5)C[C@H]3N4)cc2)c1 (some centres not stated),1.2&6.4,7.4&1.9,-6.2&4.5
CCCNC(=O)N1CC2(CN(C(=O)CN(C)C)C2)c2c(n(C)c3cc(OC)ccc23)[C@@H]1CO,14.6,7.1,7.5
O=C(C[C@H]1CC[C@@H]2[C@H](COC[C@@H](O)CN2C(=O)c2cccnc2)O1)NCc1ccc(Cl)cc1,5.8,1.0,4.9
C[C@H]1CN([C@@H](C)CO)S(=O)(=O)c2ccc(C#CCN(C)C)cc2O[C@@H]1CN(C)S(C)(=O)=O,2.9,2.4,0.5

# An excerpt (hit frequency here may not be typical).
